PMP22 txn prim – modulates PMP22 transcription in S16 Schwann cells; S16 Pmp22-F2sN Schwann cells (luciferase reporters placed in the Pmp22 gene), FLuc/NLuc coincidence luminescence, 24 h; Potency, µM (highest dose often 57.5 µM), without a hit: at the top dose activity change, negative = inhibition, hits mostly inhibitors; 43,000 tested, 2% active; active = clear falling dose curves in both reporters; inconclusive = both reporters move, but less clearly or upward; inactive = either reporter flat; the % is the NLuc reporter signal; note: % is set by controls: 0 for no effect and ±100 for the full control effect; some results filed as inactive show a strong effect at the top dose
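Transcriptional readout in edited S16(c9) cells: two luciferases reported from the Pmp22 locus, measured in turn after 24 h compound incubation.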
HTT promoter inh – HTT promoter inhibition | 48,000 tested, 0.93% active | AID 1508623 | Potency, µM (titrated, usually from 57.5 µM), for inactives: top-dose activity change, negative = inhibition, actives largely listed as inhibitors | HEK293 HTT promoter firefly luciferase reporter (activity 0% = vehicle and -100% = no light), 24 h; active = well fitted inhibition curve with a large enough effect; inconclusive = small, poorly fitted or top-dose-only effect; inactive = no such curve, though single readings can be large or run the other way; note: nearly all actives have a fitted effect of over 50% in size
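Firefly luciferase readout (Dual-Glo, 10 min RT) after 24 h, 37 °C compound exposure (final up to 57.5 uM) of HEK293 reporter cells cultured 24 h beforehand; PTC124 at 50 uM final as control inhibitor; activity scaled vehicle 0%, zero RLU -100%.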
Numbers without * were called inactive; ? = inconclusive; . = no result given; & = joins results of further samples; [ ] = dose if it differs, or a comment. Potency is the fitted concentration of half-maximal effect. Random draw from the library. Share with any hit: about 2.7%.

SMILES | PMP22 txn prim | HTT promoter inh
COc1ccc(NC(=O)c2sc3nc(C)c(C(=O)Nc4ccc(C)cc4C)c(-c4ccc(C)o4)c3c2N)cc1 | 8% | 7%
CCc1ccc(NC(=O)Cn2ccn(Cc3ccccc3OC)c(=O)c2=O)cc1 | 4% | -31%
COc1ccc(-n2ncc(C(=O)N3CCN(c4cc(C)ccc4C)CC3)c2C2CCN(C(=O)OC(C)(C)C)CC2)cc1 | -18% | 2%
Cc1ccc(C)c(Cn2c(=O)n(-c3ccccc3)c(=O)c3c4c(sc32)CCCC4)c1 | -5% | -12%
COc1ccc(C(CC(=O)Nc2ccccn2)N2Cc3ccccc3C2=O)cc1OC (stereo unspecified) | 21% | -16%
Cc1ccc(C)c(-n2nnc(-c3nc(-c4ccc(Cl)cc4)no3)c2N)c1 | 5% | 28%
COc1ccc(OCC(=O)OCc2cc(=O)n3cc(C)sc3n2)cc1 | ? | -21%
O=C(/C=C/c1ccccc1)Nc1nc2n(n1)C(c1ccc(Cl)cc1)C=C(c1ccccc1)N2 (stereo unspecified) | 9% | ?
Cc1c(C(=O)NCCc2ccc(Cl)cc2)sc2nc3n(c(=O)c12)CCCC3 | -47% | -3%
Cc1cc(C)c2nc(C)cc(Nc3cccc(C(=O)O)c3)c2c1 | 10% | -19%[11.5 µM]
COc1cccc2cc(-c3nc4ccc(C)cc4[nH]3)c(=O)oc12 | 11% | 63%[activator]
CN1CCN(C(=O)Nc2cccc(Cl)c2)c2cccnc21 | ? | 9%
Cc1ccc(-n2c(=O)c3c(C)c(C)sc3n(CC(=O)NCc3ccccc3)c2=O)cc1C | ? | ?
COC(=O)c1nnn(CC(=O)Nc2c(C)cccc2C)c1N | 4% | -14%
CCn1c(CNC(=O)c2ccc(OC)cc2)nnc1SCC(=O)Nc1ccc(F)cc1 | -52% | -1%
CCC(C)NC(=O)Cn1c(=O)n(-c2ccc(C)cc2)c(=O)c2ccccc21 (stereo unspecified) | 2% | -15%
COc1ccc(CC(=O)Nc2nc3c(s2)CC(C)CC3)cc1 (stereo unspecified) | 0% | 27%
Cc1ccc(N2CC(NC(=O)C3CCCC3)CC2=O)cc1C (stereo unspecified) | 8% | -25%
O=C(c1ccc2c(c1)N(Cc1cccc(Cl)c1)C(=O)c1ccccc1S2(=O)=O)N1CCCCC1 | -27% | ?
CCN(CC)C(=O)Cn1c(=O)n(-c2ccc(C)c(C)c2)c(=O)c2c3c(sc21)CCCCC3 | 15% | -4%
CCc1ccc(NC(=O)CCn2c(=O)c3cccn3c3ccccc32)cc1 | ? | -26%
Cc1ccc2c(c1)c1c3n2CCN(C(=O)c2cccc(C(F)(F)F)c2)C3CCC1 (stereo unspecified) | -13% | ?
CC(=O)N1CCCc2cc(S(=O)(=O)N3CCCC(C(=O)Nc4ccc(C)c(C)c4)C3)ccc21 (stereo unspecified) | 1% | -18%
Cc1cc2c(n1-c1ccc(C(=O)NCc3ccccc3Cl)cc1)CCCC2 | ? | 28%
CSc1ccc(CNC(=O)Cc2csc3ccccc23)cc1 | -8% | 3%
CCOc1ccc(N2CC(NC(=O)Cc3ccccc3)CC2=O)cc1 (stereo unspecified) | 13% | -1%
CCC(=O)N1c2ccccc2CC1C(=O)NCc1ccccc1Cl (stereo unspecified) | 4% | 0%
Cc1cc(C)cc(-n2ccnc2SCC(=O)Nc2nc3ccccc3s2)c1 | ? | ?
Cc1oc2ncn(C)c(=O)c2c1C(=O)N1CCN(c2ccc(Cl)cc2)CC1 | -6% | -34%
CCCNC(=O)C(Cc1ccccc1)NS(=O)(=O)c1ccc2c(c1)c(=O)n(C)c(=O)n2C (stereo unspecified) | -9% | -6%
Cc1ccc(NC(=O)C(=O)NCC(c2ccc3c(c2)OCO3)N2CCN(c3ccccc3)CC2)cc1 (stereo unspecified) | 3% | -1%
CC(C)(C)C(=O)Oc1ccc(S(=O)(=O)Nc2ccccc2C(=O)NCC(=O)O)cc1 | . | -5%&2%
COc1cccc(C2=CC(c3ccccc3F)n3ncc(C(=O)Nc4ccc(C)cc4)c3N2)c1 (stereo unspecified) | ? | ?
COC(=O)c1ccccc1NC(=O)C1CCN(C(=O)N2CC(C)Oc3ccccc32)CC1 (stereo unspecified) | 3% | -19%
CCOC(=O)c1cnc2ccccc2c1Nc1ccc(N2CCOCC2)cc1 | ? | -13%
CCc1ccc(-c2cc(C)no2)cc1S(=O)(=O)Nc1ccc(C)cn1 | 13% | -35%
COc1ccc(NC(=O)c2ccco2)cc1NC(=O)c1cc(Br)ccc1Cl | -5% | -18%
CCc1nnc(NC(=O)C(=O)c2cc(C)n(-c3ccccc3)c2C)s1 | -15% | ?
CSc1ccc(CCNC(=O)C(C)n2nc(C)c3sc4ccccc4c3c2=O)cc1 (stereo unspecified) | 3% | -5%
COc1ccc(CCNS(=O)(=O)c2c(C)nc3sccn3c2=O)cc1OC | 6% | -1%
Cc1ccc(NC(=O)c2c(C)oc3ccc(O)c(CN(C)Cc4ccccc4)c23)c(C)c1 | ? | -23%
Cc1ccc(Cl)cc1NC(=O)Cn1c(=O)oc2cc(S(=O)(=O)N3CCCCCC3)ccc21 | ? | ?
CCc1ccc(-c2nn(CC(=O)NC3CCCCC3)c3c2cnc2ccc(C)cc23)cc1 | -6% | 3%
CCn1c2ccccc2c2cc(CN3CCN(Cc4ccc(OC)c(OC)c4)CC3)ccc21 | ? | -20%
Cc1ccc(NC(=O)C2CCC(CNS(=O)(=O)c3ccc4c(c3)C(C)(C)C(=O)N4C)CC2)cc1 (stereo unspecified) | 16% | -26%
CCCCOc1cccc(C(=O)Nc2sc3c(c2C(=O)OCC)CCCC3)c1 | -14% | -7%
CCOc1ccc(NC(=O)CCNS(=O)(=O)c2ccc3c(c2)CCCC(=O)N3)cc1 | -3% | -16%
O=C(c1cccc(Cl)c1)N(Cc1cccc(F)c1)C1CCS(=O)(=O)C1 (stereo unspecified) | -12% | 2%
Cc1ccc(OCCSc2nc3ccccc3n2CC(=O)N2CCOCC2)c(C)c1 | ? | -21%
COc1ccc(-c2ccc(CNc3ccc4[nH]c(=O)[nH]c4c3)o2)cc1Cl | ? | ?
CCN(CC)CCCNC(=O)C(C)n1nc(C)n2c(cc3occc32)c1=O (stereo unspecified) | -8% | -16%
COc1ccccc1CCNC(=O)C1CCN(c2nnc(C)c3c(C)n(-c4ccc(C)cc4)nc23)CC1 | ? | -6%
Cc1ccc([C@H]2Nc3ccc(S(=O)(=O)Nc4cccc(Cl)c4C)cc3[C@H]3C=CC[C@H]32)cc1 | -6% | -17%
CCC1CCCCN1C(=O)Cn1c(=O)n(CCCCCC(=O)NCc2ccccc2Cl)c(=O)c2sccc21 (stereo unspecified) | ? | -7%
COc1ccc(C2N3CC4(C)CN2CC(c2ccccc2)(C3)C4=O)cc1 (stereo unspecified) | ? | -16%
Cc1ccn2c(Nc3ccccc3C)c(-c3ccncc3)nc2c1 | ? | 17%
COc1ccccc1CNC(=O)C1CCN(S(=O)(=O)c2ccc3[nH]c(=O)ccc3c2)CC1 | -11% | 9%
CCOc1ccc2nc(N(Cc3cccnc3)C(=O)c3ccco3)sc2c1 | -21% | 21%
CCC(C(=O)NC1CCCCC1)n1c(SCc2cccc(C)c2)nc2ccncc21 (stereo unspecified) | ? | -18%
CCC(=O)N1CCc2cc(Br)cc(S(=O)(=O)CCC(=O)Nc3ccccc3C)c21 | 15% | -7%

Continuation.
SMILES | PMP22 txn prim | HTT promoter inh
Cc1nnsc1C(=O)Oc1ccc(C#N)cc1 | 1% | -4%
CCOC(=O)c1cc(-c2ccccc2)n(CC(=O)Nc2ccc(CC)cc2)c1C | ? | -8%
Cc1ccc(Cl)cc1N1CCN(C(=O)c2cccn2-c2nnc(N3CCCC3)s2)CC1 | ? | ?
O=C(C1CC1)N1CCc2cc(Br)cc(S(=O)(=O)Nc3ccc(C(F)(F)F)cc3)c21 | ? | ?
CCOCCCNC(=O)c1ccc2nc(CCc3ccccc3)oc2c1 | 1% | 1%
CC1CCN(S(=O)(=O)c2cc(C(=O)N3CCN(c4cccc(Cl)c4)CC3)n(C)c2)CC1 | ? | ?
CC(C)c1ccc(NC(=O)c2cccc3c2C(=O)N(C2CCCCC2)C3)cc1 | ? | -17%
Cc1cc(C)cc(-n2cnc3cc(C(=O)NCCc4ccccc4)ccc32)c1 | 9% | -13%
CCOc1ccc(CCNC(=O)Cc2ccc(NC(=O)N3CCSc4ncccc43)cc2)cc1 | -6% | ?
CCn1ccc2cc(S(=O)(=O)N3CCC(C(=O)NCc4cccc(Cl)c4)CC3)ccc21 | -29% | -21%
CCOc1ccc(-n2c(SCC(=O)N3CCOCC3)nc3c([nH]c4ccccc43)c2=O)cc1 | -11% | -18%
Cc1ccc(OCC(=O)Nc2ccccc2C(=O)OCc2cc(=O)n3nc(C4CC4)sc3n2)cc1 | ? | -11%
COc1ccc(-c2nc(Cn3c(SCc4cccc(C(F)(F)F)c4)nc4cccnc43)c(C)o2)cc1OC | ? | ?
COc1ccc(CNC(=O)Cc2csc3nc(-c4ccc(C)cc4)cn23)cc1 | 24% | 19%
COc1ccccc1NC(=O)c1cc2c([nH]c1=O)CC(C)(C)CC2=O | 5% | 12%
CC(C)CN(CCNC(=O)c1cn(C)c2ccc(S(=O)(=O)N3CCOCC3)cc2c1=O)CC(C)C | -13% | -21%[11.5 µM]
COc1cc(OC)c(NC(=O)C(C)n2nc(-c3ccc(C)c(C)c3)ccc2=O)cc1Cl (stereo unspecified) | -30% | ?
NC(=O)CSc1oc(-c2ccco2)nc1S(=O)(=O)c1ccc(Cl)cc1 | 3% | -21%
COc1ccc(OC)c(NC(=O)Cc2coc3ccc(C(C)C)cc23)c1 | 5% | -30%
COC(=O)c1cc2occc2n1Cc1nc(-c2ccccc2)oc1C | -7% | -18%
Cn1nc(C(=O)N2CCN(c3cccc(Cl)c3)CC2)c2c1-c1ccccc1S(=O)(=O)C2 | 3% | -18%
COc1ccc(N(CC(=O)Nc2cc(Cl)ccc2C)S(=O)(=O)c2c(C)noc2C)cc1 | 14µM* | ?
O=C(C1CC1)N1CCc2cc(Br)cc(S(=O)(=O)N3CCN(c4cccc(C(F)(F)F)c4)CC3)c21 | ? | 6%
COc1ccc(C(=O)c2oc3ccccc3c2NC(=O)c2cccc(OC)c2)cc1 | -12% | -7%

Five entries from above, arranged by count of non-hydrogen atoms, low to high.
SMILES | PMP22 txn prim | HTT promoter inh
NC(=O)CSc1oc(-c2ccco2)nc1S(=O)(=O)c1ccc(Cl)cc1 | 3% | -21%
COc1ccc(OC)c(NC(=O)Cc2coc3ccc(C(C)C)cc23)c1 | 5% | -30%
COc1ccc(CNC(=O)Cc2csc3nc(-c4ccc(C)cc4)cn23)cc1 | 24% | 19%
Cn1nc(C(=O)N2CCN(c3cccc(Cl)c3)CC2)c2c1-c1ccccc1S(=O)(=O)C2 | 3% | -18%
COc1ccc(-c2nc(Cn3c(SCc4cccc(C(F)(F)F)c4)nc4cccnc43)c(C)o2)cc1OC | ? | ?

More entries follow:
SMILES | PMP22 txn prim | HTT promoter inh
CCSc1ncc(Cl)c(C(=O)Nc2ccc(S(=O)(=O)Nc3ncccn3)cc2)n1 | 71% | -6%
Cc1cccc(CNC(=O)Cn2nc(C)c3nn(-c4ccc(Cl)cc4)c(C)c3c2=O)c1 | -12% | -14%
CCCN(CCC)C(=O)CSc1nnc2cc(C)c3ccccc3n12 | -6% | -7%
O=C(c1ccccc1Cl)N1c2ncnn2C2(CCCCC2)[C@@H]2CCCC[C@@H]21 | -25% | -37%
CCc1cccc(CC)c1NC(=O)CCS(=O)(=O)c1ccc(Br)cc1 | ? | -22%
COc1ccc(CC(=O)NCc2ccc3c(c2)CCN3C(C)=O)cc1 | -3% | -5%
CCOc1ccc(NC(=O)c2ccc(CN3C(=O)C(C)=C(c4ccc(C)cc4)S3(=O)=O)cc2)cc1 | -12% | 8%
COc1ccc(NC(=O)CSc2nnc(NC(=O)Nc3ccccc3)s2)c(OC)c1 | 13% | -2%
CCOc1ccc(C(=O)NCCc2csc(-c3ccc(C(F)(F)F)cc3)n2)cc1OCC | -10% | 1%
Cc1cccc(C)c1NC(=O)CCCn1c(=O)c2cccn2c2ccccc21 | -21% | -2%
Cc1ccc2oc(-c3cc(NC(=O)/C=C/c4ccco4)ccc3Cl)nc2c1 | -68% | 0%
Cc1ccc(NS(=O)(=O)c2ccc3nc(-c4ccccc4)[nH]c3c2)c(Br)c1 | -4% | ?
COc1ccc(-c2cc(-c3ccccc3)nc3c2COc2ccc(F)cc2-3)cc1 | 12% | -9%
Cc1cccc(N2CCN(C(=O)c3c(C)oc4ncnc(N5CCCCC5)c34)CC2)c1C | ? | ?

Single records, from the list above:
Results for CCc1cccc(CC)c1NC(=O)CCS(=O)(=O)c1ccc(Br)cc1 → PMP22 txn prim = ?; HTT promoter inh = -22%
Results for Cc1cccc(C)c1NC(=O)CCCn1c(=O)c2cccn2c2ccccc21 → PMP22 txn prim = -21%; HTT promoter inh = -2%
Results for COc1ccc(CC(=O)NCc2ccc3c(c2)CCN3C(C)=O)cc1 → PMP22 txn prim = -3%; HTT promoter inh = -5%
